Screening results deposited in PubChem by National Center for Advancing Translational Sciences (NCATS).
Six1-Eya2 inh: blocks human Six1 binding to Eya2. 0.56% of 360,000 active. AlphaScreen GST-Six1/His-Eya2 binding, biochemical; hits give low values; control for the full effect not named in the record. Q15475+O00167. activity change, % (no concentration beside the values); in the data active = activity change below about -65%; inconclusive = about -30% to -65%; inactive = above about -30%; also: % is scaled to controls: 0 for no effect and ±100 for the full control effect; compound concentration not given in the record
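AlphaScreen with GST-Six1 and His-Eya2 (5X mix: 250 nM and 500 nM), glutathione donor and nickel acceptor beads; buffer 50 mM Tris pH 8.0, 300 mM NaCl, 1 mM TCEP; 1 h at 37 C in the dark.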
TRPML1 agonist: agonists of human TRPML1 channel | Q9GZU1 | TRPML1-expressing cells, Ca2+ dye fluorescence, FDSS; host cell line not named in the record; reference of the full effect not given here | activation, % (concentration not given with the values) | 0.12% of 410,000 active | AID 624414; in the data active = activation above about 50%; inconclusive = about 30% to 50%; inactive = below about 30%; also: 0% is about no effect; the text of the record puts the active cut at 80%
Target sequence (Q9GZU1 whole entry, looked up): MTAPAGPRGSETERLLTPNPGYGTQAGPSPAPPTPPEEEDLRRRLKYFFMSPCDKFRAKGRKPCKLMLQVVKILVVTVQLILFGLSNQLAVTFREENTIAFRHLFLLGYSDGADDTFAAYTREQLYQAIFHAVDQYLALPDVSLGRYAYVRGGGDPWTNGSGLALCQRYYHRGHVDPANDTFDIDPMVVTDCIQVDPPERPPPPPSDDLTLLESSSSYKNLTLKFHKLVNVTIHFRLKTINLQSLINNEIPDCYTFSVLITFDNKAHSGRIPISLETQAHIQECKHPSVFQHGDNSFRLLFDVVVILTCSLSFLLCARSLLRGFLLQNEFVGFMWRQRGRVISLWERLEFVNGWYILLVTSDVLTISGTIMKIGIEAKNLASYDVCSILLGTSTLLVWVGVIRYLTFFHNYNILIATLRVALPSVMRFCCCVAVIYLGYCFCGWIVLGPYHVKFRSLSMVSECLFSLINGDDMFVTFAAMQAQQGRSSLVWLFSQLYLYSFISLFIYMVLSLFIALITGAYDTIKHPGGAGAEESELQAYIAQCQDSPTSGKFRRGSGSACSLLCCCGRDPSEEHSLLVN
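Cells: TRPML1-DL, 1X Tet inducer, ~16 h at 37 degrees C/5% CO2. Dye: ABD Ca8 no-wash + quencher, 45-90 min RT. Read: 10 s baseline, compound add, 110 s agonist phase; 54-4 EC80 (4uM final), 110 s antagonist phase.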
D2 ag: agonists of human D2 dopamine receptor (beta-arrestin); activation, % (test concentration not listed); DiscoveRx PathHunter D2 beta-arrestin, luminescence, 90 min; 100% = 57 uM dopamine signal; 0.084% of 360,000 active; P14416; AID 624465; in the data active = activation above about 40%; inconclusive = about 15% to 40%; inactive = below about 15%; also: compound concentration not given in the record; the text of the record calls up to 30% inactive
Target sequence (P14416 whole entry, looked up): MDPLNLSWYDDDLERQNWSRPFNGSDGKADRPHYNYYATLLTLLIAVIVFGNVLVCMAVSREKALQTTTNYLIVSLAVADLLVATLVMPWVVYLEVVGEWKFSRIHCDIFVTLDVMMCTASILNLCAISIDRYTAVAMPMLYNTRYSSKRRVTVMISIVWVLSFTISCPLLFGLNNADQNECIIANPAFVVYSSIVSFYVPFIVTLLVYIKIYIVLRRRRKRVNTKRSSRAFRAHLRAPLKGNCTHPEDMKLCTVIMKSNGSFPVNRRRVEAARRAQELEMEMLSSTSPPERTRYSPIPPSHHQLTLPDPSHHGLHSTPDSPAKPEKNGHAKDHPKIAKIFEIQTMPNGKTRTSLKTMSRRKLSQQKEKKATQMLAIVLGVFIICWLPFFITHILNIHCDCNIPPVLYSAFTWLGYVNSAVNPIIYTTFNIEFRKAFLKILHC
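DiscoveRx PathHunter D2 beta-arrestin cells (2,100/well) attached overnight, then compound-stimulated 90 min at 37 C in HBSS/10 mM HEPES/0.1% Tween-20 buffer; beta-galactosidase complementation read by luminescence after 1 h at ambient temperature. Dopamine 57 uM final (EC100) as control.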
PINK1 modulator: changes PINK1 expression; Potency, µM (doses to about 76.6 µM), for inactives: at the highest dose activation (PINK1 increase), usual class: activators; PINK1 immunofluorescence, high-content cytometry, 24 h; 0.2% of 410,000 active; active = well fitted activation curve with a large enough effect; inconclusive = small, poorly fitted or top-dose-only effect; inactive = flat fitted curve, though single readings scatter; cell line not stated here;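 also: potency is read from the fitted curve at half-maximal effect; % of control where 0% means no effect; nearly all actives have a fitted effect of over 65% in size; a mitochondrial uncoupler was the plate control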
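PINK1 protein, normally rapidly degraded, was detected by immunofluorescence after 24 hour compound treatment of a stable cell line. Titration data (5 concentrations) came from laser-scanning cytometry, with CCCP-treated wells as controls.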
D2 PAM: positive allosteric modulators of human D2 dopamine receptor; potentiation, % (no concentration beside the values); P14416; 0.23% of 360,000 active; DiscoveRx D2 beta-arrestin cells, luminescence, 90 min; 100% = 57 uM dopamine signal; active = potentiation of 50% or more; inconclusive = 30% to 50%; inactive = 30% or less;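 also: compound concentration not given in the record; tested on top of an EC20 dose of dopamine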
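PathHunter D2 cells, attached overnight at 37 deg C, received compound in DMSO plus dopamine at EC20 (50 nM final) for 90 min at 37 deg C. Beta-arrestin recruitment was read as luminescence after 1 h with detection reagent at ambient temperature.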
TRPML1 blocker: human mucolipin-1 channel inhibition; TRPML1-inducible cells, Ca2+ dye fluorescence, FDSS; hits give low values; inhibition of EC80 agonist-evoked calcium signal; activity change, negative = inhibition, % (no concentration beside the values); 0.02% of 390,000 active; AID 624415; in the data active means activity change below about -50%; inconclusive means about -30% to -50%; inactive means above about -30%;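 also: stimulus is agonist 54-4 at its EC80 concentration; % is scaled to controls: 0 for no effect and ±100 for the full control effect; compound concentration not given in the record; the text of the record puts the active cut at -80%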
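TRPML1-DL cells, Tet-induced overnight (~16 h, 37 °C) at 1,500 cells/well, were loaded with Ca8 no-wash dye plus quencher for 45-90 min at room temperature. Compounds were pinned during FDSS kinetic reading; agonist 54-4 at EC80 (4 uM final) then added.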
* hit, by the source's call; ? = inconclusive; / = not tested or not shown; [ ] = remark or other dose. Compounds were not picked by outcome; any-hit rate near 1%.

SMILES	Six1-Eya2 inh	TRPML1 agonist	D2 ag	PINK1 modulator	D2 PAM	TRPML1 blocker
O=C(COC(=O)/C=C/c1ccc(OC(F)F)cc1)NC1CCCCC1	5	-0.6	-4.2	0.8%	2	26
O=C(COc1ccc(Br)cc1CO)Nc1ccc(F)cc1	-3	-0.8	-0.1	0.5%	-27	4
O=C1CC(c2ccco2)c2ccc3ccccc3c2N1 (stereo unspecified)	-14	2.8	-2.5	0.0%	-2	7
CN(CC(=O)Nc1ccccc1Cl)C(=O)c1ccc(Cl)c(S(=O)(=O)N2CCCCCC2)c1	3	2.8	-1.1	0.2%	-5	18
COc1ccc(NC(=O)CCc2ccc(OC)c(OC)c2)cn1	5	-0.4	-3.8	1.3%	-1	-10
Cc1ccc(NC(=O)c2ccc(Cl)c(S(=O)(=O)NCC3CCCO3)c2)c(O)c1 (stereo unspecified)	1	0.8	2.8	1.5%	?	0
CC(=O)Nc1ccc(C(=O)Nc2ccc(S(=O)(=O)NCC3CCCO3)cc2)cc1 (stereo unspecified)	-3	-0.3	-0.2	0.7%[38.3 µM]	-5	11
CCOc1cc(/C=C2/NC(=O)NC2=O)cc([N+](=O)[O-])c1O	?	0.7	-9.4	0.9%	-22	11
CCCSc1nc2c(cnn2-c2ccc(Cl)cc2)c(=O)[nH]1	1	0.7	-0.1	-1.5%[38.3 µM]	7	16
O=C(COC(=O)c1ccccc1)c1ccc(Br)cc1	18	1.6	-1.3	/	-1	7
COCCCNC(=O)c1cnn(-c2ccc(F)cc2F)c1C1CCNCC1	/	1.0	/	-4.4%	/	-10
Cc1cccc(C(=O)NCCN2CCN(c3ccccc3)CC2)c1	2	0.7	1.6	-2.1%	-21	16
COc1cccc(NC(=O)CN2C=NS(=O)(=O)c3ccccc32)c1	/	-0.6	/	0.1%	/	-12
CCOc1ccc(NC(=O)c2c(Nc3ccc(OC)cc3OC)sc(C(=O)c3ccc(Cl)cc3)c2N)cc1	/	4.6	/	5.5%	/	14
COC(=O)[C@H](CCSC)NC(=O)NCCC1=CCCCC1	0	1.4	0.0	22%[38.3 µM]	-3	-17
CCCCCCc1cc2cc(S(=O)(=O)c3ccc(F)cc3)c(=O)oc2cc1O	21	9.5	3.3	40µM*	11	0
Cc1ccc2oc(=O)c3cnn(CC(=O)NCCc4ccsc4)c3c2c1	0	-0.5	-6.0	9.2%	-7	1
CC(C)C[C@@H](CN1CCC[C@H]1CN1C(=O)C(=O)NC[C@@H]1Cc1ccccc1)N1C[C@H](Cc2ccccc2)N(CC2CCCCC2)C(=O)C1=O	1	-0.3	/	2.1%	/	/
CCCCC1(Cc2ccc([N+](=O)[O-])cc2)C(=O)N(c2ccccc2)N(c2ccccc2)C1=O	-20	2.1	2.6	1.4%	-12	17
O=C(Nc1ccc(-c2nnc3n2CCCCC3)cc1)c1cnccn1	-2	0.8	0.1	-0.8%	-7	-7
Cc1ccc(Cc2c(-c3ccc(Cl)cc3)nc3cc(C)ccn23)cc1	-14	1.4	-9.5	?	-1	22
CC(=O)C1=C(C)NC(=O)NC1c1ccccc1 (stereo unspecified)	1	-0.5	-3.3	0.2%	-5	-5
CC1(C)Cc2ccccc2-c2nnc(SCC(=O)Nc3ccc4c(c3)OCO4)n21	-9	4.2	0.7	-3.5%	-10	13
COC(=O)c1cc(F)c(-n2cncn2)c(F)c1	7	0.0	-2.3	0.2%[38.3 µM]	-8	-2
COc1ccc(CCNC(=O)CNC(=O)c2ccco2)cc1	-3	-0.1	-0.1	2.8%	-7	4
O=C(O)C1CSC2(c3ccc(Br)cc3)CCC(=O)N12 (stereo unspecified)	14	0.0	-2.1	0.1%	-22	-8
CC(C)N(C(=O)[C@H]1CC(CC(=O)NCCN2CCOCC2)C(=O)N2CCc3c([nH]c4ccccc34)[C@]12C)C(C)C (stereo partly specified)	-1	-0.6	-0.7	0.2%	/	1
O=C(CCCSc1ccccc1)Nc1nc(-c2ccccn2)cs1	0	-0.1	-1.8	5.4%	-5	0
Nc1c(C(=O)c2ccccc2)oc2ccc(Br)cc12	15	-0.4	-2.1	-3.7%[38.3 µM]	1	7
O=C(O)CCCCCNC(=O)c1cccc(Br)c1	3	-0.3	-4.2	13%[38.3 µM]	-19	-5

3 entries drawn at random from the list so far:
SMILES	Six1-Eya2 inh	TRPML1 agonist	D2 ag	PINK1 modulator	D2 PAM	TRPML1 blocker
COC(=O)c1cc(F)c(-n2cncn2)c(F)c1	7	0.0	-2.3	0.2%[38.3 µM]	-8	-2
COc1cccc(NC(=O)CN2C=NS(=O)(=O)c3ccccc32)c1	/	-0.6	/	0.1%	/	-12
CC(=O)C1=C(C)NC(=O)NC1c1ccccc1 (stereo unspecified)	1	-0.5	-3.3	0.2%	-5	-5

(continued)
SMILES	Six1-Eya2 inh	TRPML1 agonist	D2 ag	PINK1 modulator	D2 PAM	TRPML1 blocker
Cc1cc(C)c(C#N)c(SCC(=O)Nc2ccc3c(c2)OCO3)n1	5	-0.5	-2.4	0.2%	-9	31
Cc1cccn2cc(CNS(=O)(=O)c3ccc4ccccc4c3)nc12	1	2.2	0.7	-0.3%	11	-15
COc1ccc(Cl)cc1NC(=O)CSc1nnc(C)c(=O)n1N	3	1.0	-3.5	-1.0%	11	-14
Cc1ccccc1N1CCN(S(=O)(=O)c2cccs2)CC1	7	2.5	-3.0	-0.5%	-7	-11
Cc1ccc(Cl)cc1N1CCN(c2nc3ccc(C(=O)c4ccccc4)cc3n3cnnc23)CC1	/	-0.1	/	-0.9%	/	-17
CCOC(=O)c1c(-c2ccccc2)nc2ccccn12	-2	0.0	-6.7	1.1%	-10	1
COc1ccc(NC(=O)CN2C(=O)c3cccc4cccc2c34)c(OC)c1	10	-0.7	-1.0	0.6%	-5	1
CCOc1ccc(CN2C(=O)c3ccccc3C2=O)cc1C(=O)NC1CC(C)(C)NC(C)(C)C1	-1	0.5	-2.8	0.1%	-5	7
CCOC(=O)c1nc2ccccc2c(=O)[nH]1	1	1.7	-2.0	0.6%	-1	-6
C/C(=N\NC(=O)C1CCCC1)c1ccc(Cl)c(Cl)c1	1	1.6	1.6	4.7%	-1	11
CC1CCCN(C(=O)COC(=O)COc2ccc(C#N)cc2)C1 (stereo unspecified)	5	-1.1	-2.9	1.0%	-4	-3
Cc1ccc(C(=O)NC2(C(Cl)Cl)N=C(c3ccccc3)N=C2N)cc1 (stereo unspecified)	-2	3.0	-2.2	-0.7%	-5	-8
CC(=O)/C(=N/Nc1ccccc1C)N1CCOCC1	4	0.6	-0.1	-2.5%	11	15
Cc1cccc(NC(=O)c2oc3ccccc3c2NC(=O)c2cc(=O)c3ccccc3o2)c1	/	-0.6	/	0.4%	/	7
CCOc1ccc(/C=N/n2c(COc3ccccc3)n[nH]c2=S)cc1OC	-1	0.5	0.7	1.6%	-8	24
CCCN(CCC)C(=O)Cn1c(=O)c2sccc2n2c(=S)sc(-c3ccccc3)c12	-5	0.5	-2.6	22%	-6	-18
COc1ccc(N=C/C=C2\C=C(c3ccccc3)OC(C)(C)O2)cc1	?	1.1	-2.2	-4.8%	-17	22
Cc1ccc(NC(=O)CN2C(=O)CCc3ccccc32)cc1C	/	1.7	/	0.8%	/	-7
COc1cc(/C=C2\SC(=S)N(CCC(=O)N3CCN(C)CC3)C2=O)cc(OC)c1OC	8	-0.2	-2.3	11%	-2	-12
CCC(O)c1c(-c2ccccc2)nn(C)c1Cl (stereo unspecified)	21	0.2	0.5	-0.2%	2	-16
CCC[C@H]1CN(c2ccc(Br)cc2)C(=O)[C@@H]1CC(=O)Nc1ccc(OC)cc1	-3	1.6	-4.5	1.2%	1	5
Cc1nc2c(C)cccn2c1/C(O)=C1\C(=O)C(=O)N(CCN2CCOCC2)C1c1cccs1 (stereo unspecified)	0	-0.7	-0.7	1.2%[38.3 µM]	-3	0
COC(=O)c1ncccc1SC	1	0.3	-4.2	2.9%	-2	-21
Brc1ccc(-c2ccc(/C=N/Nc3nc4ccccc4[nH]3)o2)cc1	6	1.2	?	?	-19	33
CCOc1ccc(NC(=O)c2ccc(OCC3CCCO3)cc2)cc1S(=O)(=O)N(CC)CC (stereo unspecified)	8	0.0	-2.2	16%	-9	0
COC(=O)c1ccc(-n2c(C)cc(-c3csc(NC(=O)c4ccc(S(=O)(=O)N(C)C)cc4)n3)c2C)cc1	-6	1.0	2.3	3.9%	-19	-6
O=C(COC(=O)C1CC1)Nc1ccc(Cl)cn1	4	0.1	-4.3	-0.4%	-5	-15
O=C(c1cc(C2CCCCN2S(=O)(=O)c2ccc(F)cc2F)on1)N1CCOCC1 (stereo unspecified)	0	0.5	-4.6	2.2%	-4	1
CCCn1c(=O)c(C(=O)NCCc2ccc(OC)c(OC)c2)c(O)c2ccccc21	0	-0.1	-3.2	3.5%	-2	-10
O=C(O)c1cc(Cl)c(Cl)cc1C(=O)N1CCCC1	-1	-0.4	1.0	/	-14	5
COc1ccc(OC)c(N=C2C(=O)Nc3ccccc32)c1	-6	0.6	-11	-0.2%	-28	1
CCOc1cccc(N2C(=O)CC(N(CCc3ccc(OC)c(OC)c3)C(=O)CC)C2=O)c1 (stereo unspecified)	-15	-0.5	-2.2	-0.9%	2	1
CCOc1ccc(OCCSc2nc3ccccc3[nH]2)cc1	-7	-0.1	1.8	/	8	18
OCC[C@H]1C[C@@H](O)[C@H](O)[C@@]2(Cc3ccccc3O2)O1	-1	-0.2	0.2	1.6%	-1	14
NC(=S)NN=C(c1ccc(Br)cc1)C1CC1	-1	-0.3	-0.1	-5.0%	-1	36
CCN(CC(=O)Nc1cc(S(=O)(=O)N2CCOCC2)ccc1Cl)Cc1ccccc1	-8	3.9	-0.7	1.9%	-4	25
O=C(CC(C(=O)O)N1CCOCC1)Nc1ccc(Cl)cc1 (stereo unspecified)	4	-0.1	0.9	?	-12	4
Cc1cn(C)c(CC(=O)NCc2cccc(Cl)c2)c1C(=O)O	/	1.3	/	0.6%	/	14
O=C(O)CCn1c(SCc2ccccc2)nc2ccccc21	7	0.2	-1.2	/	-12	24
CN(CC(=O)Nc1cccc2c1CCCC2)S(=O)(=O)c1ccc(Br)cc1	-1	3.9	1.3	-1.0%[38.3 µM]	-6	-13
CCCc1nnc(SCC(=O)Nc2ccc(Cl)cc2Cl)o1	10	0.0	-2.3	3.1%	-2	-3
O=C(CN1C(=O)S/C(=C/c2ccncc2)C1=O)N1CCOCC1	-3	0.3	-0.3	-0.6%	-6	-5
Clc1cccc(N/N=C/c2ccc(N3CCOCC3)s2)c1	-15	0.2	3.0	-0.9%	4	7
O=c1c2sc3ccccc3c2n(Cc2ccccc2)c(=O)n1Cc1ccccc1	/	1.3	/	-0.7%	/	-1
Cc1ccc(C(=O)N2CCN(c3ccccc3)CC2)cc1C	0	-0.2	-0.9	3.5%[38.3 µM]	-3	5
